Screening data from PubChem BioAssay.
Mtb growth = Mycobacterium tuberculosis H37Rv growth inhibition, cell based, confirmatory dose response (AID 1949) | M. tuberculosis H37Rv growth inhibition | most inactive calls were filed without a number and no value below 0 was filed | 100,000 compounds, 1.6% hits | inhibition, % at 10 µg/mL, or IC50 in µg/mL where a hit was titrated;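 active = confirmed in a dose series; inconclusive = about 50% or more but not retested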;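 note: bacteria grown 7 days with compound before Alamar blue readout; 0% = untreated bacteria and 100% = reference antibiotic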
* hit, by the source's call; i = inactive; ? = inconclusive.

Sample of the layout, 26 compounds:
SMILES	Mtb growth
O=C(Nc1sc2c(c1C(=O)NCc1cccnc1)CCCC2)c1sc2ccccc2c1Cl	i
O=C(CSc1ncnc2sc3c(c12)CCC3)NCc1ccccc1	i
O=C(CN1CCCC1)Nc1c2c(nc3ccccc13)CCC2	0%
CCN(CC)c1ccc(C2C(C(=O)Nc3ccccn3)=C(C)NC3=C2C(=O)CC(C)(C)C3)cc1 (stereo not drawn)	0%
N#C/C(=C\c1cnc2ccccc2n1)S(=O)(=O)c1ccccc1	62%
O=S(=O)(c1ccc(N2CCCCC2)cc1)C(F)(F)F	3%
Cn1nnnc1SCC(=O)Nc1cc(Cl)cc(Cl)c1	i
CCCCNC(=S)NC(c1ccccc1)(c1ccccc1)c1ccccc1	5%
O=C(CSc1nc2ccccc2s1)Nc1ccc(S(=O)(=O)Nc2nccs2)cc1	?
Cc1c(Cc2ccccc2)sc(NC(=S)Nc2ccccc2)c1C(N)=O	12%
CCN1CCN(C(=O)c2ccccc2N(C)S(C)(=O)=O)CC1	i
CCC(C(=O)OC)n1cnc2scc(-c3cccc([N+](=O)[O-])c3)c2c1=O (stereo not drawn)	i
O=C(c1cccs1)N1N=C(c2cccs2)CC1c1cccs1 (stereo not drawn)	i
COc1ccc(C(=O)NC(=S)Nc2nc(-c3ccc(Cl)cc3)cs2)cc1[N+](=O)[O-]	i
C=CCOc1c(CNc2ccc(C(=O)O)cc2)cccc1OC	i
CCN(C(=O)Cc1ccc(OC)cc1)c1nnc(-c2ccccc2)s1	i
COc1cc(NS(=O)(=O)Cc2ccccc2)c(OC)cc1Cl	i
COc1ccc(CNc2nc3ccccc3n2C(C)C)c(O)c1	i
COc1cccc(-c2csc(NC(=O)CN3C(=O)c4ccccc4C3=O)n2)c1	i
C=C(C)c1cccc(C(C)(C)NC(=O)N2CC(C)OC(C)C2)c1 (stereo not drawn)	i
COc1ccc(C(CCN)Cc2ccccc2)cc1 (stereo not drawn)	2%
CCOC(=O)c1ccccc1OC(=O)c1ccc2c(c1)C1C=CCC1C(C(=O)O)N2 (stereo not drawn)	i
O=C1Cc2ccccc2N1c1c(Cl)cccc1Cl	1%
COc1ccccc1CC(=O)Nc1ccc(-c2noc(-c3ccc(OC)c(OC)c3)n2)cc1	i
CN1C(=O)C(O)(CC(=O)c2ccc3c(c2)CCCC3)c2ccccc21 (stereo not drawn)	i
COc1c(C)cc(Br)cc1C(=O)Nc1ccc(N2CCN(S(C)(=O)=O)CC2)cc1	2%

The listing, repeating the preview:
SMILES	Mtb growth
O=C(Nc1sc2c(c1C(=O)NCc1cccnc1)CCCC2)c1sc2ccccc2c1Cl	i
O=C(CSc1ncnc2sc3c(c12)CCC3)NCc1ccccc1	i
O=C(CN1CCCC1)Nc1c2c(nc3ccccc13)CCC2	0%
CCN(CC)c1ccc(C2C(C(=O)Nc3ccccn3)=C(C)NC3=C2C(=O)CC(C)(C)C3)cc1 (stereo not drawn)	0%
N#C/C(=C\c1cnc2ccccc2n1)S(=O)(=O)c1ccccc1	62%
O=S(=O)(c1ccc(N2CCCCC2)cc1)C(F)(F)F	3%
Cn1nnnc1SCC(=O)Nc1cc(Cl)cc(Cl)c1	i
CCCCNC(=S)NC(c1ccccc1)(c1ccccc1)c1ccccc1	5%
O=C(CSc1nc2ccccc2s1)Nc1ccc(S(=O)(=O)Nc2nccs2)cc1	?
Cc1c(Cc2ccccc2)sc(NC(=S)Nc2ccccc2)c1C(N)=O	12%
CCN1CCN(C(=O)c2ccccc2N(C)S(C)(=O)=O)CC1	i
CCC(C(=O)OC)n1cnc2scc(-c3cccc([N+](=O)[O-])c3)c2c1=O (stereo not drawn)	i
O=C(c1cccs1)N1N=C(c2cccs2)CC1c1cccs1 (stereo not drawn)	i
COc1ccc(C(=O)NC(=S)Nc2nc(-c3ccc(Cl)cc3)cs2)cc1[N+](=O)[O-]	i
C=CCOc1c(CNc2ccc(C(=O)O)cc2)cccc1OC	i
CCN(C(=O)Cc1ccc(OC)cc1)c1nnc(-c2ccccc2)s1	i
COc1cc(NS(=O)(=O)Cc2ccccc2)c(OC)cc1Cl	i
COc1ccc(CNc2nc3ccccc3n2C(C)C)c(O)c1	i
COc1cccc(-c2csc(NC(=O)CN3C(=O)c4ccccc4C3=O)n2)c1	i
C=C(C)c1cccc(C(C)(C)NC(=O)N2CC(C)OC(C)C2)c1 (stereo not drawn)	i
COc1ccc(C(CCN)Cc2ccccc2)cc1 (stereo not drawn)	2%
CCOC(=O)c1ccccc1OC(=O)c1ccc2c(c1)C1C=CCC1C(C(=O)O)N2 (stereo not drawn)	i
O=C1Cc2ccccc2N1c1c(Cl)cccc1Cl	1%
COc1ccccc1CC(=O)Nc1ccc(-c2noc(-c3ccc(OC)c(OC)c3)n2)cc1	i
CN1C(=O)C(O)(CC(=O)c2ccc3c(c2)CCCC3)c2ccccc21 (stereo not drawn)	i
COc1c(C)cc(Br)cc1C(=O)Nc1ccc(N2CCN(S(C)(=O)=O)CC2)cc1	2%
CCOc1ccc(C2NC(=O)NC(C)=C2C(=O)Nc2cc(C)cc(C)c2)cc1 (stereo not drawn)	i
COc1ccc(Cl)cc1NC(=O)NNC(=O)c1ccc(Cl)s1	i
CCCN(CCC)S(=O)(=O)c1ccc(NS(=O)(=O)c2ccc(OC)cc2)cc1	i
O=C(NCc1ccco1)c1nc2ccccc2s1	i
CCn1nnc(NC(=O)c2cccc(-c3cc4ccccc4oc3=O)c2)n1	i
CN(C)S(=O)(=O)c1ccc(C(=O)NC2CC2)cc1	i
COC(=O)c1cc(OC)c(OC)cc1NC(=O)c1cc(C)on1	i
COc1cc(NC(=S)NC(=O)c2c(F)c(F)c(OC)c(F)c2F)c(OC)cc1Cl	2%
CC(C)CNC(=O)C(=O)NCCN1CCOCC1	i
COc1ccc(NC(=S)NN2CCN(C)CC2)cc1OC	i
NC(=O)CN1CCN(C(=S)Nc2cccc3ccccc23)CC1	i
Cc1ccc(C)c(COc2ccc3c(C)cc(=O)oc3c2C)c1	i
O=C(Nc1ccc(S(=O)(=O)N2CCCC2)cc1)c1ccc(Br)s1	25%
Cc1ccc(C(=O)Nc2ccccc2Oc2ccccc2)s1	i
O=C(/C=C/c1cccc(C(F)(F)F)c1)Nc1ncc(Cc2cccc(Cl)c2)s1	i
O=C(Nc1ccccc1N1CCCCC1)c1cc(Cl)ccc1Cl	i
O=C(NC(=S)Nc1ccc2[nH]c(=O)[nH]c2c1)c1cccs1	i
O=C(Nc1ccc(OCc2ccccc2)cc1)c1ccc(Cl)c(S(=O)(=O)N2CCOCC2)c1	i
CCOC(=O)N1CCN(C(=O)CNS(=O)(=O)c2ccc(Br)cc2)CC1	i
COc1ccc(NC(=S)N2CCc3ccccc3C2)c(OC)c1	i
CCC1CCc2c(sc(NC(=O)c3cnn4c(C(F)F)cc(-c5ccccc5)nc34)c2C#N)C1 (stereo not drawn)	i
O=C(Nc1ccc2nccnc2c1)Nc1ccccc1Cl	i
CCOC(=O)c1c(N)n(CCCOC(=O)c2ccc([N+](=O)[O-])c(Cl)c2)c2nc3ccccc3nc12	i
O=C(Cc1ccccc1)NCC(=O)N1CCCCC1	i
O=[N+]([O-])c1nn(Cc2cccc(F)c2)cc1Cl	i
N#C/C(=C/c1cc2c(cc1Cl)OCO2)C(N)=S	4%
CC(C)C(=O)Nc1ccc(C(=O)N2CCCCCC2)cc1	i
CCCCC(=O)Nc1ccc(NC(=S)NC(=O)c2ccc(OCC)c(Cl)c2)cc1OC	i
CC(NC(=O)CSc1nc2c(c(=O)n(C)c(=O)n2C)n1Cc1ccccc1F)c1ccccc1 (stereo not drawn)	i
COc1ccc(N2C(=O)N(c3ccc(Cl)c(Cl)c3)C3CS(=O)(=O)CC32)cc1 (stereo not drawn)	i
CCOc1ccc(NC(=O)CSc2n[nH]c(=O)n2-c2ccccc2)cc1	i
COc1cccc2cc(-c3nnc(SCC(=O)Nc4sc5c(c4C#N)CCCC5)n3C)oc12	6%
CN(c1ccccc1C(=O)Nc1cccc(F)c1)S(C)(=O)=O	i
O=C(CN(Cc1ccccc1)S(=O)(=O)c1cc(Cl)ccc1Cl)Nc1c(F)cccc1F	3%

Later entries
SMILES	Mtb growth
C=CCn1c(CSc2nc3ccccc3s2)nnc1SCC(=O)Nc1nccs1	i
CCc1ccc(S(=O)(=O)N=Nc2c(O)[nH]c3ccc(Br)cc23)cc1	i
COc1ccc(OC)c(NC(=S)Nc2ccccc2F)c1	i
CC(NC(=O)c1cccc(F)c1)c1ccc2c(c1)CCCC2 (stereo not drawn)	i
Cc1c(C(=O)NC(=S)Nc2ccc(C(=O)OC(C)C)cc2)oc2ccccc12	i
Cc1cccc(/C(N)=N/OC(=O)Oc2ccccc2)c1	i
Cc1cc(C)cc(C(=O)Nc2ccc(I)cc2C)c1	i
CCCCC(=O)Nc1cccc(NC(=O)c2cc(Cl)ccc2Cl)c1	i
CCCCCc1nnc(NC(=O)C2c3ccccc3Oc3ccccc32)s1	i
O=C(CSc1nnc(-c2ccc(Cl)cc2Cl)o1)Nc1ccccc1C(F)(F)F	i
O=C(Nc1ccccc1C(=O)NCc1ccccc1)c1ccco1	1%
CC(C)(C)Cc1nc(-c2ccccn2)no1	i
CCOc1cc(/C=C2\SC(=S)N(CCCOC)C2=O)ccc1O	i
Cc1nc(SCC(N)=O)c2c(C)c(C)sc2n1	i
Cc1nn(Cc2ccc(Cl)cc2Cl)c(C)c1NC(=S)Nc1ccc(S(=O)(=O)Nc2ncccn2)cc1	i
O=C(Nc1ccccc1F)c1ccc(Cl)c(S(=O)(=O)N2CCOCC2)c1	i
Cc1c(NC(=O)CN(c2ccc(C(C)C)cc2)S(C)(=O)=O)c(=O)n(-c2ccccc2)n1C	i
COc1ccc(OC)c(NS(=O)(=O)c2ccc3c(c2)CCN3C(C)=O)c1	i
O=C(NCc1ccccn1)C(=O)Nc1c(F)cc(F)cc1Br	5%
N#Cc1c(C(F)(F)F)cc(-c2ccccc2)nc1SCC(=O)Nc1ccc(S(=O)(=O)Nc2ncccn2)cc1	i
CCC(=O)n1nc(-c2ccc(OC)cc2)nc1SC	1%
COc1ccc(-c2cc3nc4n(c(=O)c3s2)CCC4)cc1	i
C=CCn1c(SCC(=O)Nc2nc3ccccc3s2)nnc1-c1ccccc1C	1%
N#Cc1ccc(-c2cccc(C(F)(F)F)c2)o1	i
Cc1ccc(S(=O)(=O)N(C)CC(=O)NCc2ccc(F)cc2)cc1	i
CCOc1ccc(C)cc1S(=O)(=O)N1CCOCC1	i
Fc1ccc(Cn2cc(NC(=S)NC3CCCCC3)cn2)cc1	i
CN1C2=C(C(=O)CC(C)(C)C2)C(c2ccc(OCc3ccc(F)cc3)cc2)C2=C1CC(C)(C)CC2=O	8%
CSc1ccc(S(=O)(=O)Nc2ccc(OCC(=O)N3CCOCC3)cc2)cc1	i
COc1ccc(C2NC(C(=O)O)Cc3c2[nH]c2ccccc32)cc1Cn1cc([N+](=O)[O-])cn1 (stereo not drawn)	6%
O=C(Nc1ccc(S(=O)(=O)N2CCCC2)cc1)C1c2ccccc2Oc2ccccc21	3%
Cc1ccc(OC(=O)COc2ccc([N+](=O)[O-])cc2)c(Br)c1	i
Cc1ccc(SCCC(=O)NC2CC2)cc1	7%
C=CCOc1c(Br)cc(CNc2ccc3[nH]c(=O)[nH]c3c2)cc1OCC	8%
CCOC(=O)c1c(C)nc(-c2ccccc2)nc1NC(=O)Nc1ccccc1	i
O=C(CCN1CCCC1)Nc1ccccc1F	i
CCN1CCN(S(=O)(=O)CC23CCC(CC2=O)C3(C)C)CC1 (stereo not drawn)	i
CCCn1c(=N)n(CCOc2ccccc2C)c2ccccc21	i
O=C(CSc1ncn[nH]1)Nc1ccc(S(=O)(=O)Nc2ncccn2)cc1	i
O=C(CSc1nnc(NC(=O)c2ccccc2Br)s1)Nc1cccc([N+](=O)[O-])c1	3%
O=[N+]([O-])c1ccccc1S(=O)(=O)N=S(=O)(c1ccccc1)c1ccccc1	i
CCN(CC(O)Cn1cc(C=O)c2ccccc21)S(=O)(=O)c1ccc(Cl)cc1 (stereo not drawn)	i
Cc1c(Cl)cccc1NC(=S)NCCc1ccccc1	2%
COc1ccc2c(c1)c(=O)oc1c(C)c(OCC(=O)OCc3ccccc3)ccc12	37%
COc1cc(CNC(C)c2ccccc2)c(Br)cc1OCC(N)=O (stereo not drawn)	i
Cc1ccc(S(=O)(=O)n2cnc3ccccc32)cc1C	i
Cc1ccc(C(=O)Nc2sc3c(c2C(=O)NCc2ccco2)CCCC3)cc1	i
COc1ccc(Cl)cc1C(=O)Nc1ccc(N2CCN(Cc3ccccc3F)CC2)cc1	3.4µg/mL*
CC1=C(C(=O)OCc2ccccc2)C2(C(=O)Nc3ccc(F)cc32)C(C#N)=C(N)O1 (stereo not drawn)	i
Cc1ccc(OC(C)C(=O)Nc2sc3c(c2C(N)=O)CCCC3)cc1C (stereo not drawn)	i
NC(=O)c1c(NC(=O)c2cc3ccccc3o2)sc2c1CCCC2	i

A portion of the library, so the mix of outcomes need not match the whole.
